Assay outcomes as filed in PubChem BioAssay.
Vaccinia inh: blocks a specific stage of Vaccinia orthopoxvirus infection; Vaccinia-infected cells, mCherry/Venus stage reporter fluorescence; hits give low values; some inactives read as strong as hits; activity change (mCherry), % (no concentration beside the values); hit rate 0.01% among 89,000;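 active = mCherry past -33% and 40 or more points under the early reporter, replicates agreeing; inconclusive = past -33% without that gap or agreement; tested in A549 cells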;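 note: scaled between vehicle wells and reference inhibitor wells; 23 nL library stock went into each well; one replicate is shown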
Vaccinia inh Venus: second read-out of Vaccinia inh, no call of its own (marks repeat the call); activity change (Venus), %; measured here: Venus reporter, other viral stage;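 negative = less Venus signal; first of two replicates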
An asterisk follows results filed as active; u = inconclusive; x = no result given; & = joins results of further samples. An excerpt (hit frequency here may not be typical).

SMILES | Vaccinia inh Venus | Vaccinia inh
C[C@H]1CN([C@@H](C)CO)S(=O)(=O)c2ccc(-c3cccc(C#N)c3)cc2O[C@@H]1CN(C)Cc1ccccn1 | 0 | -10
COc1ccc(NC(=O)Nc2ccc3c(c2)[C@H]2C[C@@H](CC(=O)N[C@@H](C)c4ccccc4)O[C@H](CO)[C@H]2O3)cc1 | 10 | 12
COc1ccc(NC(=O)N(C)C[C@H]2Oc3ccc(NS(=O)(=O)c4cn(C)cn4)cc3C(=O)N([C@@H](C)CO)C[C@H]2C)cc1 | -3 | -3
C[C@@H]1CCCCO[C@H](CN(C)Cc2ccccc2)[C@@H](C)CN([C@@H](C)CO)C(=O)c2cc(NS(=O)(=O)c3ccc(Cl)cc3)ccc2O1 | x | u
O=C(C[C@@H]1C[C@H]2c3cc(NC(=O)C4CCOCC4)ccc3O[C@H]2[C@@H](CO)O1)NCc1ccc(Cl)cc1 | 1 | 5
Cc1noc(C)c1S(=O)(=O)Nc1ccc2c(c1)C(=O)N([C@H](C)CO)C[C@H](C)[C@H](CN(C)C(=O)Nc1ccc(F)cc1)OCCCC[C@@H](C)O2 | 6 | 20
CO[C@H]1CN(C)C(=O)c2ccc(NC(=O)Nc3ccccc3F)cc2OC[C@@H](C)N(C(C)=O)C[C@@H]1C | 6 | 13
Cc1ccc(S(=O)(=O)Nc2ccc3c(c2)C(=O)N([C@H](C)CO)C[C@@H](C)[C@@H](CN(C)Cc2ccc(C(F)(F)F)cc2)OCCCC[C@@H](C)O3)cc1 | x | u
C[C@@H]1CN([C@H](C)CO)C(=O)c2cc(-c3ccccc3F)cnc2O[C@H]1CN(C)C(=O)NC1CCCCC1 | -4 | 12
CC(C)NC(=O)N(C)C[C@@H]1Oc2cc(C#Cc3cccc(F)c3)ccc2S(=O)(=O)N([C@H](C)CO)C[C@@H]1C | -21 | -35
O=C(C[C@H]1CC[C@@H](NC(=O)Cc2ccccn2)[C@@H](CO)O1)NCCc1ccccc1 | -2 | 0
Fc1ccc(-c2ccc(C3[C@@H]4CN(Cc5nccs5)C[C@H]3N4)cc2)cc1 (some centres undefined) | -17 | u
COc1ccc(NC(=O)N(C)C[C@@H]2Oc3ncc(C#C[C@H](C)O)cc3C(=O)N([C@H](C)CO)C[C@@H]2C)cc1 | 12 | 21
Cc1ccc(-c2ccc3c(c2)O[C@@H](CN(C)CC2CC2)[C@@H](C)CN([C@@H](C)CO)S3(=O)=O)cc1 | x | u
COc1ccc(NC(=O)N(C)C[C@H]2Oc3c(NC(=O)c4ccc(-c5nccs5)cc4)cccc3C(=O)N([C@@H](C)CO)C[C@H]2C)cc1 | -5 | -13
O=C(Nc1ccccc1)[C@H]1[C@H](CO)[C@H]2Cn3c(cccc3=O)[C@H]2N1C(=O)C1CCC1 | 12 | 29
COc1ccc(NC(=O)N(C)C[C@H]2OCCCC[C@H](C)Oc3ccc(NC(=O)NC4CCCCC4)cc3C(=O)N([C@@H](C)CO)C[C@@H]2C)cc1 | -15 | -20
C[C@@H]1CCCCO[C@H](CN(C)C(=O)Nc2ccc(F)cc2)[C@@H](C)CN([C@H](C)CO)C(=O)c2cc(N(C)C)ccc2O1 | -2&3 | 8&4
COc1ccc(C(=O)N2C[C@@H]3[C@H](c4ccccc42)[C@@H](CO)N3Cc2ccc(Cl)cc2)cc1 | x | u
CC(C)c1cn(CC[C@@H]2CC[C@H](NC(=O)c3cccc(F)c3)[C@@H](CO)O2)nn1 | 11 | 20
COc1cccc(NC(=O)N2C[C@H](O)COC[C@H]3O[C@@H](CC(=O)N(C)C)CC[C@@H]32)c1 | 6 | 4
O=C(C[C@H]1C=C[C@@H](NC(=O)Nc2ccc(F)cc2)[C@@H](CO)O1)NCCN1CCCC1 | 10 | 6
COCC(=O)Nc1ccc2c(c1)OC[C@H](C)N(C(=O)COC)C[C@H](C)[C@@H](OC)CN(C)C2=O | 12 | 25
Cc1ccc(S(=O)(=O)Nc2ccc3c(c2)C(=O)N([C@@H](C)CO)C[C@H](C)[C@H](CN(C)Cc2ccncc2)OCCCC[C@@H](C)O3)cc1 | 8 | -1
C[C@@H]1CN([C@H](C)CO)C(=O)CCCn2nncc2CO[C@@H]1CN(C)S(=O)(=O)c1ccc(Oc2ccccc2)cc1 | -30&-11 | -35&-13
CCS(=O)(=O)Nc1ccc2c(c1)C(=O)N(C)[C@H]1CC[C@H](CC(=O)N3CCCCC3)O[C@H]1CO2 | 8 | 9
COc1ccc(S(=O)(=O)Nc2ccc3c(c2)[C@H]2C[C@H](CC(=O)O)O[C@H](CO)[C@H]2O3)cc1 | 1 | 2
O=C(C[C@H]1CC[C@H]2[C@@H](COC[C@@H](O)CN2S(=O)(=O)c2ccc(Cl)cc2)O1)NCCN1CCCC1 | 10 | 11
C[C@@H]1CCCCO[C@H](CN(C)S(=O)(=O)c2cn(C)cn2)[C@H](C)CN([C@@H](C)CO)C(=O)c2cc(NS(=O)(=O)c3ccc(F)cc3)ccc2O1 | 7 | 9
CCCN1[C@H](CO)[C@H](c2ccc(C3=CCCC3)cc2)[C@H]1CN(C(C)=O)C1CCCC1 | -6 | -22

One compound at a time, from the list above. Order of screens: Vaccinia inh Venus, Vaccinia inh
Record of `Cc1ccc(S(=O)(=O)Nc2ccc3c(c2)C(=O)N([C@H](C)CO)C[C@@H](C)[C@@H](CN(C)Cc2ccc(C(F)(F)F)cc2)OCCCC[C@@H](C)O3)cc1` = x, u
Record of `CC(C)NC(=O)N(C)C[C@@H]1Oc2cc(C#Cc3cccc(F)c3)ccc2S(=O)(=O)N([C@H](C)CO)C[C@@H]1C` = -21, -35
Record of `C[C@@H]1CCCCO[C@H](CN(C)Cc2ccccc2)[C@@H](C)CN([C@@H](C)CO)C(=O)c2cc(NS(=O)(=O)c3ccc(Cl)cc3)ccc2O1` = x, u
Record of `COc1ccc(NC(=O)N(C)C[C@H]2Oc3c(NC(=O)c4ccc(-c5nccs5)cc4)cccc3C(=O)N([C@@H](C)CO)C[C@H]2C)cc1` = -5, -13
Record of `COc1ccc(NC(=O)Nc2ccc3c(c2)[C@H]2C[C@@H](CC(=O)N[C@@H](C)c4ccccc4)O[C@H](CO)[C@H]2O3)cc1` = 10, 12

Four compounds drawn at random from those above:
SMILES | Vaccinia inh Venus | Vaccinia inh
COc1ccc(NC(=O)N(C)C[C@H]2Oc3c(NC(=O)c4ccc(-c5nccs5)cc4)cccc3C(=O)N([C@@H](C)CO)C[C@H]2C)cc1 | -5 | -13
C[C@@H]1CCCCO[C@H](CN(C)Cc2ccccc2)[C@@H](C)CN([C@@H](C)CO)C(=O)c2cc(NS(=O)(=O)c3ccc(Cl)cc3)ccc2O1 | x | u
Cc1noc(C)c1S(=O)(=O)Nc1ccc2c(c1)C(=O)N([C@H](C)CO)C[C@H](C)[C@H](CN(C)C(=O)Nc1ccc(F)cc1)OCCCC[C@@H](C)O2 | 6 | 20
COc1ccc(NC(=O)N(C)C[C@@H]2Oc3ncc(C#C[C@H](C)O)cc3C(=O)N([C@H](C)CO)C[C@@H]2C)cc1 | 12 | 21

Further compounds
SMILES | Vaccinia inh Venus | Vaccinia inh
C/C=C/c1cnc2c(c1)C(=O)N([C@@H](C)CO)C[C@@H](C)[C@@H](CN(C)Cc1cncnc1)O2 | 17 | 25
CCCNC(=O)N1C[C@H](O)COC[C@H]2O[C@H](CC(=O)NCCCN3CCOCC3)CC[C@@H]21 | 22 | 22
N#C[C@H]1[C@H](c2ccccc2)[C@H](CO)N1S(=O)(=O)c1ccc(F)cc1 | 9 | 20
Cc1ccc(-c2ccc3c(c2)O[C@@H](CN(C)C(=O)C2CC2)[C@H](C)CN([C@@H](C)CO)S3(=O)=O)cc1 | -16 | -16
C[C@@H]1CN([C@H](C)CO)C(=O)c2cccc(NC(=O)Nc3ccc4c(c3)OCO4)c2O[C@H]1CN(C)Cc1ccc(C(=O)O)cc1 | 3 | 10
COc1ccc(-c2ccc3c(c2)[C@@H]2[C@@H](CCN2C(=O)NC2CCCC2)[C@H](CO)N3C)cc1 | x | u
O=C(C[C@H]1CC[C@H]2[C@@H](COC[C@@H](O)CN2C(=O)c2ccc(F)cc2)O1)Nc1nccs1 | 7 | 4
C[C@H](CO)N1C[C@H](C)[C@H](CN(C)S(=O)(=O)c2ccc(F)cc2)Oc2c(NS(=O)(=O)c3ccc(F)cc3)cccc2C1=O | -1 | -7
CC(C)NC(=O)N(C)C[C@@H]1OCc2ccccc2-c2ccccc2C(=O)N([C@H](C)CO)C[C@H]1C | 24 | 24
CCNC(=O)[C@@H]1[C@@H](CO)[C@@H]2Cn3c(ccc(-c4cccc(F)c4)c3=O)[C@H]1N2C(=O)c1cnccn1 | 17 | 10
COCC(=O)Nc1ccc2c(c1)[C@H]1C[C@@H](CC(=O)NCc3ccccc3F)O[C@@H](CO)[C@H]1O2 | -5 | -14
C[C@H](CO)N1C[C@H](C)[C@@H](CN(C)Cc2ccc3c(c2)OCO3)OCCCC[C@H](C)Oc2ccc(NC(=O)c3ccccc3)cc2C1=O | -24 | -33
O=C(CC1CC1)N1[C@H](CO)[C@@H]2c3ccccc3N(S(=O)(=O)c3ccccc3)C[C@@H]21 | 12 | 8
C[C@@H]1CN([C@@H](C)CO)C(=O)Cc2cc(NC(=O)C3CC3)ccc2O[C@H]1CN(C)C(=O)Nc1ccc(C(F)(F)F)cc1 | -1 | 6
COCC(=O)Nc1ccc2c(c1)C(=O)N(C)C[C@H](OC)[C@H](C)CN(CCc1ccccc1)[C@@H](C)CO2 | -7 | -4
COc1ccc(NC(=O)Nc2cccc3c2O[C@H](CN(C)S(=O)(=O)c2ccc(Cl)cc2)[C@H](C)CN([C@H](C)CO)C3=O)cc1 | 4 | -3
CN(C)C(=O)[C@H]1[C@H](CO)[C@H]2Cn3c(ccc(-c4ccccc4)c3=O)[C@@H]1N2CCc1ccccc1 | 16 | 19
C[C@@H]1CCCCO[C@@H](CN(C)C(=O)Nc2ccccc2)[C@H](C)CN([C@H](C)CO)C(=O)c2cc(NC(=O)Nc3ccc(F)cc3)ccc2O1 | -9 | -8
C[C@@H](O)C#Cc1ccc([C@H]2[C@H]3CN(C(=O)Nc4ccccc4)CCCCN3[C@H]2CO)cc1 | -3 | 23
C[C@@H]1CCCCO[C@H](CN(C)Cc2ccc(Cl)c(Cl)c2)[C@@H](C)CN([C@H](C)CO)C(=O)c2cc(NS(=O)(=O)c3ccc(Cl)cc3)ccc2O1 | -20 | -32
CN1CCN(C(=O)C[C@H]2CC[C@H]3[C@H](COc4ccc(NC(=O)c5cscn5)cc4C(=O)N3C)O2)CC1 | 11 | 4
O=C(c1ccc(F)cc1)N1CC(=O)N2[C@H](C1)[C@H](c1ccc(C#Cc3ccc(F)cc3)cc1)[C@@H]2CO | x | u
C[C@H](CO)N1C[C@H](C)[C@@H](CN(C)Cc2ccc3c(c2)OCO3)OCCCC[C@H](C)Oc2ccc(NC(=O)CCC(F)(F)F)cc2C1=O | -16 | -31
CC(C)NC(=O)N(C)C[C@H]1Oc2ccc(NC(=O)CCC(F)(F)F)cc2C(=O)N([C@H](C)CO)C[C@H]1C | -3 | -9
C[C@@H]1CN([C@H](C)CO)S(=O)(=O)c2ccc(C#Cc3ccncc3)cc2O[C@@H]1CN(C)C(=O)c1ccncc1 | -5 | -19
COc1ccc2c3c([nH]c2c1)[C@H](CO)N(Cc1ccc2c(c1)OCO2)CC31CCN(C(=O)Nc2c(C)noc2C)CC1 | -5 | -10
COc1ccc2c3c([nH]c2c1)[C@@H](CO)N(C(=O)C1CCC1)CC31CCN(C)CC1 | 3 | 11
C[C@@H]1CCCCO[C@@H](CN(C)Cc2ccc(C(=O)O)cc2)[C@@H](C)CN([C@H](C)CO)C(=O)c2cc(NC(=O)Cc3ccccc3)ccc2O1 | 10 | 17
Cc1ccc(S(=O)(=O)N[C@H]2CC[C@@H](CCNC(=O)C3CCCC3)O[C@H]2CO)cc1 | -4 | -18
COc1ccc(NC(=O)N(C)C[C@@H]2OCCCC[C@@H](C)Oc3ccc(NC(=O)CCC(F)(F)F)cc3C(=O)N([C@@H](C)CO)C[C@H]2C)cc1 | 0 | 2

(more compounds)
SMILES | Vaccinia inh Venus | Vaccinia inh
COc1ccccc1S(=O)(=O)N1CC[C@H]2[C@H](CO)Nc3ccc(-c4ccc(F)cc4)cc3[C@H]21 | -32 | -35
CO[C@H]1CN(C)C(=O)c2cc(NC(=O)c3ccccc3F)ccc2OC[C@@H](C)N(C(=O)c2ccccc2F)C[C@@H]1C | 2 | 1
C[C@H](O)C#Cc1cnc2c(c1)C(=O)N([C@@H](C)CO)C[C@@H](C)[C@@H](CN(C)C(=O)c1ccccc1)O2 | 5 | 18
O=C(C[C@@H]1CC[C@H](NS(=O)(=O)c2ccc(F)cc2)[C@H](CO)O1)N1CCN(c2ccccc2)CC1 | 3 | -1
O=C(N[C@H]1CC[C@H](CCn2cc(-c3ccc(F)cc3)nn2)O[C@H]1CO)c1cnccn1 | -2 | -1
Cc1ccc(S(=O)(=O)N[C@@H]2CC[C@H](CC(=O)NCCCN(C)C)O[C@@H]2CO)cc1 | 6 | 9
OC[C@H]1[C@@H](c2ccc(C#CC3(O)CCCC3)cc2)[C@@H]2CN(Cc3ccccc3F)CCCCN12 | x | u
COc1ccc(-c2ccc([C@@H]3[C@@H](C#N)N(C(=O)NC(C)C)[C@H]3CO)cc2)cc1 | 4 | 1
CN(C)CC(=O)Nc1ccc2c(c1)[C@H]1C[C@H](CC(=O)N3CCc4ccccc4C3)O[C@@H](CO)[C@H]1O2 | 2 | -3
Cn1cnc(S(=O)(=O)N[C@@H]2CC[C@@H](CC(=O)Nc3ccccc3)O[C@H]2CO)c1 | -5 | 2
Cc1noc(C)c1NC(=O)N[C@H]1C=C[C@H](CC(=O)N2CCCCC2)O[C@H]1CO | 7 | 9
C[C@H]1CN([C@@H](C)CO)C(=O)Cc2cc(NC(=O)Cn3cnnn3)ccc2O[C@@H]1CN(C)Cc1ccc(Cl)c(Cl)c1 | 6 | 9
